Bioassay records as filed in PubChem.
gsp antag: gsp mutant antagonism | gsp-mutant cells, cAMP HTRF, 30 min; control for the full effect not named in the record | Potency, µM (titrated, usually from 76.9 µM), for the others: top-dose activity change, negative = inhibition, actives largely listed as inhibitors | 340,000 compounds, 0.4% hits | AID 624288; active = falling curve of any shape with a large fitted effect; inconclusive = falling curve, mostly with a smaller effect; inactive = flat or rising curve; cell line not stated here;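 further: intracellular cAMP measured with PDE inhibitor Ro 20-1724 present during compound exposure; potency means the concentration at half of the fitted maximal effect; on the % scale 0 is the no-effect control and ±100 the full control effect; nearly all actives have a fitted effect of over 65% in size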
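Cells, 2000/well, grown 16–24 h in DMEM 10% FBS with 0.5 mg/ml G418, then compounds plus […] (300 uM addition stock), 30 min at 37C. cAMP read by HTRF (cAMP-d2 and anti-cAMP antibody-K in lysis buffer) after 30 min RT.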
ClpP mod: qHTS Assay for Activators of ClpP. purified B. subtilis ClpP, FRET peptide cleavage, 20 min. Potency, µM (doses to about 57.5 µM), for the others: at the top dose activity change, negative = active. 340,000 compounds, 1.9% hits. AID 651965, 2013; active = well fitted falling curve with a large enough effect; inconclusive = small, poorly fitted or top-dose-only effect; inactive = no such curve, though single readings can be large or run the other way; further: potency means the concentration at half of the fitted maximal effect; the source files actives as falling curves though it sought activators and does not explain the sign; nearly all actives have a fitted effect of over 65% in size; many hits overshoot -100%
Target sequence (P80244 whole entry, looked up): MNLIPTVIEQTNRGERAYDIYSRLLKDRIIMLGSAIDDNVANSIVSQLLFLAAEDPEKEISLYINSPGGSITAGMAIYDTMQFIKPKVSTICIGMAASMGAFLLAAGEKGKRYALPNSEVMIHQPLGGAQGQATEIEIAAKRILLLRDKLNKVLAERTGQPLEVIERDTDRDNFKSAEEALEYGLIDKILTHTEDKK
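Purified B. subtilis ClpP, 10 microg/mL final in Tris/HCl pH8 with KCl, BSA, glycerol and Tween-20, cleaved an Abz/nitrotyrosine-quenched decapeptide. Fluorescence (ex 320, em 430) was read at 0 and 20 min at room temperature. Delta was normalized to 5.8 microM ADEP and DMSO/no-enzyme controls.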
TRPV1 potentiator: human TRPV1 potentiation; Q8NER1; TRPV1-expressing cells, Fluo-8 calcium influx, capsaicin EC20 potentiation; host cell line not named in the record; control for the full effect not named in the record; potentiation, % at 8.33 µM; 320,000 compounds, 0.02% hits; active means potentiation above 80%; inconclusive means 30% to 80%; inactive means below 30%; further: 0% is about no effect
Target sequence (Q8NER1 whole entry, looked up): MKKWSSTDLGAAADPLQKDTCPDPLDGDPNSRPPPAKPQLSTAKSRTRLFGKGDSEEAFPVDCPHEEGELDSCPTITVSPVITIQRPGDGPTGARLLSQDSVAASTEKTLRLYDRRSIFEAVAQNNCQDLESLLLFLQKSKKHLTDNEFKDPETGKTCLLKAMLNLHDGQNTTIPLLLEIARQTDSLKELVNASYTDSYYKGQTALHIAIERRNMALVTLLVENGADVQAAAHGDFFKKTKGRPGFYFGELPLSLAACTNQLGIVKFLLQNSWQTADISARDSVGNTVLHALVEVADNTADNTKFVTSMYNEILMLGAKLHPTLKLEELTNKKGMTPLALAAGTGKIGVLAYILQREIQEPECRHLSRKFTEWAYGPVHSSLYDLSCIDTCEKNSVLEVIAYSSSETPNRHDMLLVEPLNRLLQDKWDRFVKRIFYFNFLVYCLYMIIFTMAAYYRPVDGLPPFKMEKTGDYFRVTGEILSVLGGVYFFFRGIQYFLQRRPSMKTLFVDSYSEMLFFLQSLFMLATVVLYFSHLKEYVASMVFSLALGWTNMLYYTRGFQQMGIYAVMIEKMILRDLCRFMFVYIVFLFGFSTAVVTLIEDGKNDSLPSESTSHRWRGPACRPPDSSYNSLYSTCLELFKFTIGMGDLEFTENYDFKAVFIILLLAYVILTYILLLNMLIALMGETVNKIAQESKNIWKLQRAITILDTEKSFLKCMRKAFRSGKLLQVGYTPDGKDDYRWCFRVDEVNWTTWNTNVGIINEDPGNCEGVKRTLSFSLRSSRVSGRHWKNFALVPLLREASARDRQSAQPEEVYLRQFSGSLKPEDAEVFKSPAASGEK
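TRPV1-expressing cells were cultured overnight at 35.5C and loaded with Fluo-8 calcium dye for 40 to 90 min at room temperature. After a 10 s baseline, compound was added and calcium influx was read kinetically for 3 min (ex 480/em 520 nm).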
Sfp inh: Sfp phosphopantetheinyl transferase inhibition | Potency, µM, for inactives: max response, negative = inhibition, most hits filed as inhibitors | Q9F4F7 | 310,000 compounds, 3.5% hits | AID 1490 | Biochemical Sfp PPTase activity, qHTS; active means well fitted inhibition curve with a large enough effect; inconclusive means small, poorly fitted or top-dose-only effect, or another doubt; inactive means no such curve, though single readings can be large or run the other way;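 further: the enzyme is Sfp with the accession as filed and its product quenches rhodamine fluorescence; potency means the concentration at half of the fitted maximal effect; 0% = enzyme reaction without inhibitor and -100% = no enzyme wells; top concentration of the series not given in the record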
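With Hepes-Na pH 7.6 buffer containing 10 mM MgCl2, Sfp (15 nM) modified BHQ-2-YbbR (12.5 uM) using rhodamine-CoA (5 uM). Two reads 30 minutes apart at 525/598 nm yielded each well's rate.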
TRPML1 inh: inhibitors of human TRPML1 channel | Q9GZU1 | TRPML1-inducible cells, Ca2+ dye fluorescence, FDSS; stronger effect = lower value; inhibition of EC80 agonist-evoked calcium signal | activity change, negative = inhibition, % (no concentration beside the values) | 390,000 compounds, 0.02% hits; in the data active means activity change below about -50%; inconclusive means about -30% to -50%; inactive means above about -30%;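 further: stimulus is agonist 54-4 at its EC80 concentration; on the % scale 0 is the no-effect control and ±100 the full control effect; compound concentration not given in the record; the text of the record puts the active cut at -80%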
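Tet-induced TRPML1-DL cells loaded with Ca8 no-wash calcium dye were read kinetically on FDSS. Compound addition was followed by EC80 agonist 54-4 (4 uM final); inhibition was read over 110 s.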
gsp agonist: gsp mutant agonism | gsp mutant cells, cAMP HTRF, 30 min; control for the full effect not named in the record | Potency, µM (doses to about 76.9 µM), for the others: at the highest dose activation (cAMP increase), usual class: activators | 340,000 compounds, 0.13% hits; active = well fitted activation curve with a large enough effect; inconclusive = small, poorly fitted or top-dose-only effect, or another doubt; inactive = no such curve, though single readings can be large or run the other way; cell line not stated here;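 further: phosphodiesterase inhibitor Ro 20-1724 added with compounds to block cAMP breakdown; potency means the concentration at half of the fitted maximal effect; nearly all actives have a fitted effect of over 60% in size; about a fifth of the inactives were tested at one dose only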
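Cells in DMEM/10% FBS with G418 were pretreated with compounds in DMSO plus […] (300 uM stock) for 30 min at 37C. cAMP was measured by HTRF (cAMP-d2 plus anti-cAMP antibody-K) after 30 min at room temperature.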
Menin MLL FP FL: menin-MLL binding inhibition, fluorescein peptide; Fluorescence polarization, fluorescein-MLL peptide displacement from menin; FP activity change, % at 61.4 µM; 290,000 tested, under 10 active; inconclusive = falling polarisation curve, or a change in total fluorescence; inactive = total fluorescence flat and polarisation flat or rising; no compound was filed as active; the % refers to the polarisation; negative = inhibition;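 further: % of control where 0% means no effect; inhibitors lower the polarisation; unlabelled MLL peptide was the positive control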
Starred values were filed as active, the others as inactive; ? = inconclusive; nt = not tested or not shown; & = joins results of further samples; [ ] = another dose, or the depositor's remark.

SMILES	gsp antag	ClpP mod	TRPV1 potentiator	Sfp inh	TRPML1 inh	gsp agonist	Menin MLL FP FL
O=C(Nc1cc2c(cc1C(=O)O)OCCCO2)c1ccc(C(F)(F)F)cc1	?	nt	9	0%	-12	?	nt
COc1ccc(N(CC(O)CN2C(=O)NC(C)(C)C2=O)S(=O)(=O)c2ccc(C)cc2)cc1 (configuration not stated)	?	-3.0%	-4	-11%	15	-33%[inhibitor]	-4.1
CC(C)CCC(C)NC(=O)C1CCN(S(=O)(=O)/C=C/c2ccccc2)CC1 (configuration not stated)	6%	nt	7	18%	-2	-29%	3.0
COc1ccc(C2CC(c3ccc(Cl)cc3)=NN2C(C)=O)cc1 (configuration not stated)	-4%	-0.9%	8	-14%	6	3%[15.4 µM]	1.5
CSCCC(N=C(NS(=O)(=O)c1ccc(C)cc1)c1ccccc1)C(=O)O (configuration not stated)	12%	-0.3%	-14	25%	18	-31%[inhibitor]	2.0
CC(C)C[C@H](NC(=O)c1nc[nH]c1C(=O)NCC(=O)OCc1ccccc1)C(=O)OCc1ccccc1	-23%	0.4%	-14	23%	0	?	1.8
CCC(C)NS(=O)(=O)c1ccc(OCC(=O)N2CCC(C)CC2)cc1 (configuration not stated)	-10%	0.3%	14	-10%	0	-30%	12
O=C(NC1CCCC1)C1CCCN(C(=O)Nc2ccccc2)C1 (configuration not stated)	5%	nt	0	16%	-9	?	8.3
COc1cc(CSc2ncn[nH]2)c(OC)cc1CSc1ncn[nH]1	-5%	-2.3%	2	3%	3	1%	-0.8
COc1ccccc1-c1nc(C(N)=O)c2[nH]c(=O)n(-c3cccc(C)c3)c2n1	7%	20µM*	2	2%	60	5%	-1.1
c1ccc(-c2noc(-c3ccc4c(c3)OCO4)n2)cc1	-9%	nt	3	20%	-6	2%	-2.8
COc1cccc(N2CCN(c3ccc4nnc(CCC(=O)Nc5ccccc5OC)n4n3)CC2)c1	?	-1.5%	3	-9%	13	?	nt
OCCCNc1ncnc2sc3c(c12)CCN(Cc1ccccc1)C3	5%	3.9%	3	-2%	-29	?	?
N#Cc1nc(COc2cccc(Cl)c2)oc1NCc1ccncc1	10%	1.0%	?	2%	-14	-30%[inhibitor]	-0.7
Cc1c(C=O)c2cc(OCc3ccccc3)ccc2n1C	-11%	nt	-1	2%	21	-51%[inhibitor]	0.6
Cc1ccc2nc(NC(=O)COC(=O)c3cccnc3)sc2c1	-1%	2.4%	nt	nt	-5	-23%	nt
Cc1occc1-c1nnc(SCC(=O)c2ccc(Cl)cc2)n1C	4%	-2.6%	14	-21%	-6	18%	6.2
CCCN(CC(=O)Nc1ccccc1C)C(=O)/C=C/c1ccc(OCC)c(OC)c1	3%	4.0%	4	nt	4	-6%	nt
Cc1oc2c(c1C(=O)O)C(=O)c1ccccc1C2=O	-1%	-0.1%	-10	?	-12	17%	-0.5
O=C(COC(=O)CNC(=O)c1ccc(Br)o1)Nc1ccccc1OC(F)F	1%	1.7%	13	20%	7	-7%	3.9
CCOc1ccc(NC(C)C(=O)N/N=C/c2cccs2)cc1 (configuration not stated)	0%	-3.4%	-8	4%	8	12%[15.4 µM]	-1.9
COc1ccc(CN2CCN(Cc3cccc(Oc4ccccc4)c3)CC2)c(OC)c1OC	6%	0.1%	9	?	4	5%[15.4 µM]	1.0
Cc1ccc(NC2CCCN(C(=O)c3cnc4ccccn4c3=O)C2)cc1C (configuration not stated)	-10%	3.4%	-1	19%	16	23%	-6.2
Cc1ccc(CNC(=O)COC(=O)C2CCC2)cc1	8%	0.4%	nt	nt	5	24%[15.4 µM]	nt
O=C(COc1ccccc1)N/N=C/c1cc2c(cc1[N+](=O)[O-])OCO2	-11%	-0.3%	-1	-4%	-8	19%	2.2
O=C(CSc1nnnn1-c1ccccc1)Nc1nsc(-c2ccc(Cl)cc2)n1	-15%	-10%	?	-16%	18	21%	-1.5
COc1ccc(OC)c(NC(=O)CCN2CCCC(C)C2)c1 (configuration not stated)	3%	-0.9%	-2	16%	-9	-12%	4.5
CCn1cc(C(=O)OCC(=O)c2ccc(Cl)cc2)c(=O)c2ccc(C)nc21	1%	nt	30	1%	-5	-4%[15.4 µM]	-7.8
N=c1oc2ccccc2cc1-c1nc(-c2ccc(Cl)cc2)cs1	6%	?	15	1%	-7	15%	nt
Cc1ccc(NC(=S)NC(=O)c2ccc(F)cc2)cc1S(=O)(=O)Nc1ccccc1Cl	-9%	-1.1%	20	15%	23	0%[15.4 µM]	2.3
CC1Cc2ccccc2N1C(=O)CSc1nnnn1C(C)C (configuration not stated)	-5%	1.5%	-1	11%	0	-9%	5.3
COc1ccccc1NS(=O)(=O)c1cc(NC(=S)Nc2cc(C)cc(C)c2)ccc1Cl	-9%	1.0%	-17	-14%	48	-4%	3.2
Cc1c(NC(=O)CSc2ccc(Cl)cc2)cccc1-c1nc2cc(Cl)ccc2o1	-9%	-5.5%	5	-9%	0	3%	5.9
CCOC(=O)C1CCN(C(=O)c2cc(S(=O)(=O)N3CCOCC3)c(Cl)cc2Cl)CC1	4%	-0.1%	-10	-11%	52	31%	3.1
CCOc1ccc(CN2CCNC(=O)C2CC(=O)N(C)Cc2nonc2C)cc1 (configuration not stated)	13%	0.4%	0	6%	-5	?	0.0
CCCCS(=O)(=O)N1CN(S(=O)(=O)CCCC)C2NC(=O)NC21 (configuration not stated)	9%	1.2%	-3	-6%	9	?	-1.4
Cc1cc(C)cc(NC(=O)CSc2nc(=O)n3cc(C)ccc3n2)c1	2%	nt	29	nt	19	17%[15.4 µM]	nt
CCn1c(CCNC(=O)c2cccs2)n[nH]c1=S	15%	-1.5%	-4	-3%	6	-36%[inhibitor]	-11
CC1CN(C(=O)CCC(=O)NC2CCCCC2)c2ccccc2S1 (configuration not stated)	-4%	0.7%	-6	12%	-4	22%	-0.2
CN(CC(=O)Nc1ccc(F)cc1)C(=O)COc1ncnc2ccccc12	7%	0.1%	25	3%	-5	-70%[inhibitor]	-2.4
NS(=O)(=O)c1cccc(Nc2nc3ccccc3nc2NS(=O)(=O)c2ccc(Cl)cc2)c1	?	nt	nt	nt	9	?	nt
COc1cccc(NC(=S)N2CCn3c(nc4ccccc43)C2)c1	1%	-0.7%	-6	6%	-4	?	-2.5
O=C(NCC(=O)N(c1ccccc1F)C(C(=O)NCC1CCCO1)c1ccccc1)c1ccco1 (configuration not stated)	-16%	0.0%	7	15%	11	-39%[inhibitor]	-1.0
Cc1ccc(C)c(NC(=O)CSc2sc3c(O)cc(=O)[nH]c3c2C#N)c1	-6%	nt	8	?	13	25%	25
CC1CN(c2nc3c(c(=O)[nH]c(=O)n3C)n2Cc2ccccc2F)CC(C)O1 (configuration not stated)	2%	-0.2%	-12	-7%	36	-28%	2.0
COc1ccc(/C=C\C(=O)CC(O)(c2ccccc2)C(F)(F)F)cc1 (configuration not stated)	3%	-1.5%	-3	-16%	54	5%	-0.6
Cc1ccc(NS(=O)(=O)c2ccc(CCC(=O)NCCO)cc2)cc1	3%	-0.5%	5	11%	-4	?	1.1
CCCCN1C(=O)C(O)(c2ccccc2)c2cc(Br)ccc21 (configuration not stated)	-5%	-0.4%	-9	2%	-13	2%	4.4
O=C(NC(=S)Nc1ccc(F)c(Cl)c1)C1CC1	-3%	-1.2%	-13	4%	15	18%	nt
CC(=O)c1cc(OC(=O)N2CCOCC2)ccc1OC(=O)N1CCOCC1	14%	-1.2%	-3	2%	-6	-1%	3.6
Cc1ccc(Cn2nnnc2CN2CCC(NC(=O)C(C)(C)C)CC2)cc1	nt	nt	2	-5%	-9	0%[15.4 µM]	6.1
COc1ccccc1C(CC(=O)N1CCCC1)c1ccc2c(c1)OCO2 (configuration not stated)	nt	nt	-24	12%	3	-1%[15.4 µM]	0.6
COCCCNC(=O)CSc1ccc(Cl)cc1	11%	-0.6%	-9	2%	4	-26%	-8.7
Nc1cc(N)cc(C(=O)OCC(=O)Nc2cc(S(=O)(=O)N3CCCCC3)ccc2Cl)c1	-8%	-1.7%	-2	16%	0	10%[15.4 µM]	2.2
O=C(N/N=C/c1ccncc1)c1ccc(OCc2ccccc2)cc1	-7%	-1.5%	-4	3%	14	-15%	-2.2
COc1ccc(C(=O)c2c[nH]c3ccccc23)cc1	-4%	1.3%	-13	6%	-7	-3%	5.0
Cc1ccc(-c2nc(C#N)c(NCc3cccc4c3OCO4)o2)cc1	6%	32µM*	6	-2%	2	-18%	5.9
Cc1cccc(CCNC(=O)CCS(=O)(=O)c2cc3c(cc2C)NC(=O)CO3)c1	1%	-0.1%&0.7%	-8	16%	1&-16	-19%	-0.3
CC(=O)Nc1ccc(S(=O)(=O)N2CCN(CCC#N)CC2)cc1	9%	-0.4%	24	15%	25	19%	-1.6
CCOc1ccccc1N(C)C(=O)c1ccc2c(=O)n3c(nc2c1)CCCCC3	-4%	-3.1%	4	17%	0	9%	nt
The results go on.
SMILES	gsp antag	ClpP mod	TRPV1 potentiator	Sfp inh	TRPML1 inh	gsp agonist	Menin MLL FP FL
COc1ccccc1/C=C/CN1CCC(n2nccc2NC(=O)C2CC2)CC1	0%	-3.7%	-3	13%	-9	-7%	-2.1
O=C(O)Cn1nc(-c2ccccc2)oc1=O	4%	-1.1%	-19	9%	4	6%	-1.6
O=C(Oc1ccccc1Cl)c1ccc(-n2cncn2)nc1	5%	0.5%	-18	10%	-2	14%	-0.6
Nn1c(SCC(=O)NC2CCCc3ccccc32)nnc1-c1ccc(Cl)cc1Cl (configuration not stated)	nt	nt	-6	11%	nt	nt	8.0
Cc1ccc(-c2ccc(CN3C(CC(C)C)C(=O)N(Cc4cn(CCC5OCCCO5)nn4)CCS3(=O)=O)cc2)cc1 (configuration not stated)	nt	-0.4%	nt	nt	27	?	nt
O=C(CSc1ccc(-c2ccc(F)cc2)nn1)NCCc1ccccc1	8%	-77%	-4	12%	-5	-7%[15.4 µM]	-5.1
